HSV replic up: enhancers of HSV replication in host cells, fold increase, host cell viability. 220,000 tested, 0.005% active. maximum fold increase. HSV replication augmentation in cells. AID 1956, 2009;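 active = peak rise of 1.5-fold or more in the series; tested in PC3 cells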;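 note: first round at 10 µM; read as green reporter fluorescence; hits show the peak of a series up to 25 µM; 1 = signal of infected wells without compound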
Insulin prom inh: inhibitors of insulin promoter-driven GFP, primary screen, imaging, TRM-6 cells (human fetal islet line), eGFP reporter, cell count; reporter expression induced with tamoxifen; inhibition, % at 2 µM; 130,000 tested, 0.9% active;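 active = inhibition above the mean plus 3 SD, with well images judged a real hit on visual review, cut at about 60% in these data, passing the limit was not always enough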
GALR2 agonist: GALR2 receptor agonists, primary screen, cell-based; GALR2-expressing cells, agonist activation read-out; 140,000 tested, 0.48% active; activation, %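 (tested at 5 µM)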; Galanin receptor type 2 (Homo sapiens), O43603;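 active = above mean plus 3 SD of all compounds, about 5% in these data, not always enough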;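 note: 0% = vehicle buffer wells and 100% = reference agonist at full effect; tested in CHO reporter cells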
Target sequence (O43603 whole entry, looked up): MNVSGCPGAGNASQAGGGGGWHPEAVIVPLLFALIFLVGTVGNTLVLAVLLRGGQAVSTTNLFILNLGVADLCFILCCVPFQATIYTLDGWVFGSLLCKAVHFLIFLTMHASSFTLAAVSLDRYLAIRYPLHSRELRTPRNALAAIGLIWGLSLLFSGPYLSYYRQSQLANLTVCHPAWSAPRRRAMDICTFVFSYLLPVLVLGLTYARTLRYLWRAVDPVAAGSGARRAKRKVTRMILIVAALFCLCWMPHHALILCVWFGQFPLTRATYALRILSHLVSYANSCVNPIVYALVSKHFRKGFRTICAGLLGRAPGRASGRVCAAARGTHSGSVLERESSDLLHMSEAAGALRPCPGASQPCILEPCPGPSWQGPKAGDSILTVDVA
RGS16-Gao HTS: modulators of RGS16 binding to Galphao, primary screen, biochemical, human proteins, multiplexed bead flow cytometry; Regulator of G-protein signaling 16 (Homo sapiens) + Guanine nucleotide-binding protein …; bead-based flow cytometry RGS16-Galphao binding, fluorescence; actives lie on both sides; binding response (% of control), % at 10 µM; 220,000 tested, 0.38% active; AID 1441, 2008;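 active = below 25% or above 175%, edge rows of some plates excepted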;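 note: Galphao activated by GDP with aluminum fluoride before binding; 100% = wells without compound and 0% = beads without RGS; some results beyond the cut were filed as inactive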
Target sequence (O15492 whole entry, looked up): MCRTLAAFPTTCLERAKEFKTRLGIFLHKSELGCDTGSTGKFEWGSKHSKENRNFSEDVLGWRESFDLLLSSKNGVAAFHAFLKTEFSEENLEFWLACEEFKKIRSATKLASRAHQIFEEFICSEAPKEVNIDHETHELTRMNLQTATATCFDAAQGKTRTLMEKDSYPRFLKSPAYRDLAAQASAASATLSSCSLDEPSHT
Target sequence (P09471 whole entry, looked up): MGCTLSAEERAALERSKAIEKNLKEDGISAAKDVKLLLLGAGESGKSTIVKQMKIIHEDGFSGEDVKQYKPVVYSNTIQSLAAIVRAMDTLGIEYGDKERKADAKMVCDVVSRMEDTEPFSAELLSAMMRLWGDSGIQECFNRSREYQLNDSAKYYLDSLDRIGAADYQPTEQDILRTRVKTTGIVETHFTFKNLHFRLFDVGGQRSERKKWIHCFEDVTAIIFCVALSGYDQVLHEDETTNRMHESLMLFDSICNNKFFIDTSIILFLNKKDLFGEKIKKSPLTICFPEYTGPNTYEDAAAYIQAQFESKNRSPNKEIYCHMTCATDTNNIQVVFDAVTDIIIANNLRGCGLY
PKD1 inh: inhibitors of human PKD1 kinase, biochemical, fluorescence polarization; 200,000 tested, 0.056% active; PKD1 kinase fluorescence polarization assay; inhibition, %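 (about 10 µM by stock and volumes)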; Serine/threonine-protein kinase D1 (Homo sapiens), Q15139;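 active = inhibition of 50% or more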;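 note: controls were vehicle for no effect and a reference inhibitor for full effect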
Insulin prom inh cell count: recorded beside Insulin prom inh, whose call it bears; normalized cell count, %; measured here: cell count, toxicity; reference of the scale not given here;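 cells exposed to compound for 48 h; stained nuclei by imaging scaled within each plate; lower means fewer cells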
HSV replic up primary fold: second read-out of HSV replic up, no call of its own (marks repeat the call); fold increase; compound at 10 µM; measured here: primary screen fold increase 10 uM; tested in PC3 cells;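 GFP signal in the first replicate; 1 = infected wells without compound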
* = called active by the depositor; i = inactive; / = not tested or not shown; [ ] = dose if it differs, or a comment. Random draw from the library; 1.2% or so of the library scored in one or more.

| molecule | HSV replic up | HSV replic up primary fold | Insulin prom inh | Insulin prom inh cell count | GALR2 agonist | RGS16-Gao HTS | PKD1 inh |
| --- | --- | --- | --- | --- | --- | --- | --- |
| Fc1ccc(NCc2nnc(SCc3nnc(-c4ccccc4)o3)n2Cc2ccccc2)cc1 | i | 0.97 | -39 | 51 | -0.9 | 100 | -12 |
| CCOC(=O)C1=C(N)OC2=C(C(=O)CCC2)C1c1ccccc1OCC (stereo unspecified) | i | 0.89 | / | / | -4.3 | 111 | -4 |
| Cn1ncc(Cl)c1C(=O)N/N=C/c1cccc(OC2CSC2)c1 | / | / | 8 | 101 | -1.4 | 69 | -6 |
| CC(=O)Nc1ccc(S(=O)(=O)Nc2ccc(NC(=O)c3ccco3)cc2)cc1 | i | 1 | -36 | 99 | -1.0 | 119 | 0 |
| CC(CC(=O)NCc1ccccc1)C1CCCO1 (stereo unspecified) | i | 0.91 | -200 | 107 | 0.3 | 92 | -1 |
| O=C1C(C=Nc2ccccc2)=C(O)c2ccccc21 | i | 0.91 | 41 | 110 | -1.2 | 73 | -1 |
| CCC1(c2ccccc2)NC(=O)N(CC(=O)Nc2ccc3c(c2)OCO3)C1=O (stereo unspecified) | i | 0.83 | / | / | -0.2 | 104 | -5 |
| CCN(Cc1ccccc1)C(=O)CCc1nc(-c2ccc(C)cc2)no1 | i | 0.74 | -29 | 121 | -1.6 | 99 | 5 |
| CC(=O)C1=C(O)C(=O)N(Cc2cccnc2)C1c1ccccc1Cl (stereo unspecified) | i | 0.97 | -33 | 75 | -2.9 | 108 | 12 |
| CCOc1ccc(-c2ccc(C=O)o2)c([N+](=O)[O-])c1 | i | 0.96 | -9 | 125 | 0.3 | 100 | -2 |
| COCCn1c(Br)nc2c1c(=O)n(C)c(=O)n2C | i | 0.89 | 15 | 156 | / | 101 | 6 |
| CC1=NOC(=O)/C1=C\c1ccc(-c2ccc(Br)cc2)o1 | i | 0.69 | 25 | 107 | / | 75 | 4 |
| COc1ccc(NC(=O)COC(=O)CCCc2c[nH]c3ccccc23)cc1OC | i | 1.1 | -37 | 151 | -3.8 | 108 | -7 |
| CNC(=O)NC(=O)COC(=O)c1n[nH]c2ccccc12 | i | 0.89 | / | / | / | 105 | / |
| Cc1ccc(C(=O)CSc2nc(C(C)C)nc3ccccc23)cc1 | i | 1.1 | / | / | / | 102 | -3 |
| Cc1nc(-c2coc3cc(OCC(=O)O)ccc3c2=O)cs1 | i | 0.89 | / | / | -0.8 | 157 | -1 |
| CCCCCNC(=O)C(=O)C1C(=O)Nc2ccccc21 (stereo unspecified) | i | 0.97 | / | / | / | 96 | / |
| Cc1cc(-c2nnc(SCC(=O)Nc3nc(-c4ccccc4)cs3)o2)no1 | i | 0.98 | / | / | / | 111 | / |
| O=C1COc2ccc(C(=O)c3ccccc3C(=O)NCc3ccco3)cc2N1 | i | 0.98 | 11 | 63 | -0.7 | 110 | 6 |
| OCC1(CCc2ccccc2)CCN(Cc2ccc3nsnc3c2)CC1 | i | 0.94 | / | / | / | 100 | 4 |
| S=C(Nc1ccc2cn[nH]c2c1)Nc1ccc(Cl)cc1Cl | i | 0.86 | -15 | 123 | / | 110 | 8 |
| CCCCn1c(Cc2ccccc2)nnc1SCC(=O)Nc1cc(C)on1 | i | 0.83 | -62 | 145 | -1.2 | 107 | 3 |
| COc1ccc(NC(C)C(=O)Nc2ccc(C#N)cc2)cc1Cl (stereo unspecified) | i | 1.1 | 48 | 84 | -1.5 | 105 | 10 |
| Cc1cc(C)cc(NC(=S)NC2CC3CCCC(C2)N3C2CCCC2)c1 (stereo unspecified) | i | 0.84 | / | / | / | 102 | 6 |
| O=C(c1ccc(-c2ccccc2)cc1)N1CCN(c2ccccn2)CC1 | i | 0.99 | -20 | 103 | / | 101 | 1 |
| Cc1ccc(SCC(=O)NNC(=O)C2CCCCC2)cc1 | i | 0.81 | 10 | 83 | -1.7 | 102 | -9 |
| CSc1nc(C)cc(/C=C\c2ccccc2)c1C#N | i | 1.1 | -107 | 91 | -3.3 | 105 | 0 |
| C=C1C(C(=O)N2CCN(C)CC2)C1C(=O)N1CCN(C)CC1 (stereo unspecified) | i | 0.98 | 36 | 162 | -1.4 | 103 | 11 |
| O=S(=O)(NC1CCCC1)c1ccc(S(=O)(=O)NC2CCCC2)cc1 | i | 0.71 | -23 | 118 | -0.4 | 98 | -5 |
| O=S(=O)(Nc1ccc2oc(-c3ccccc3)nc2c1)c1ccccc1 | i | 0.92 | / | / | -0.5 | 100 | 5 |

Next part (3 carried over from the part before).
| molecule | HSV replic up | HSV replic up primary fold | Insulin prom inh | Insulin prom inh cell count | GALR2 agonist | RGS16-Gao HTS | PKD1 inh |
| --- | --- | --- | --- | --- | --- | --- | --- |
| C=C1C(C(=O)N2CCN(C)CC2)C1C(=O)N1CCN(C)CC1 (stereo unspecified) | i | 0.98 | 36 | 162 | -1.4 | 103 | 11 |
| O=S(=O)(NC1CCCC1)c1ccc(S(=O)(=O)NC2CCCC2)cc1 | i | 0.71 | -23 | 118 | -0.4 | 98 | -5 |
| O=S(=O)(Nc1ccc2oc(-c3ccccc3)nc2c1)c1ccccc1 | i | 0.92 | / | / | -0.5 | 100 | 5 |
| CC(=O)NCCCc1c[nH]c2ccc(Cl)cc12 | i | 0.87 | / | / | -0.8 | 102 | -5 |
| CCOC(=O)C1=C(O)/C(=C/c2cn(CC(=O)NCC3CCCO3)c3ccccc23)SC1=Nc1ccc(C)cc1 (stereo unspecified) | i | 1.2 | -19 | 111 | 0.6 | / | 1 |
| O=C(NC1=NCCS1)c1sc2cc(Cl)cc(Cl)c2c1Cl | i | 0.83 | -29 | 136 | 0.3 | 110 | -9 |
| COc1ccc(-n2ccnc2CN2CCCC(CO)(Cc3cccc(OC)c3)C2)cc1 (stereo unspecified) | i | 0.88 | / | / | / | 97 | -3 |
| COC(=O)C1CC(=O)N(Cc2ccccc2)C1 (stereo unspecified) | i | 0.88 | 40 | 84 | / | 98 | 7 |
| CC(C)CN(C(=O)COC(=O)CNC(=O)c1ccccc1F)C1CCS(=O)(=O)C1 (stereo unspecified) | i | 0.95 | 25 | 88 | / | 111 | 0 |
| Cc1ccc(C(=O)Nc2ccc(Cl)cn2)cc1S(=O)(=O)N1CCOCC1 | i | 0.85 | -5 | 139 | 0.8 | 156 | -10 |
| CCOC(=O)Cc1csc(SCc2nc3ccccc3c(=O)[nH]2)n1 | i | 0.9 | 21 | 100 | -0.8 | 96 | 10 |
| Cc1[nH]n(-c2ccccc2)c(=O)c1C1(C(F)(F)F)C(=O)N(c2ccccc2)C2=C1C(=O)CC(C)(C)C2 (stereo unspecified) | i | 1.1 | -17 | 128 | -1.6 | 96 | 1 |
| CCOc1cc(C#N)c(NC(=O)c2cccnc2)cc1OCC | i | 0.73 | / | / | -0.1 | 96 | 4 |
| COCCNC(=O)C1CC2Cn3c(nc4cc(Cl)c(Cl)cc43)C2N1C (stereo unspecified) | i | 1.1 | / | / | / | 95 | / |
| O=C(CSc1nnc(-c2cccnc2)n1CCN1CCCCC1)Nc1cccc(Cl)c1 | / | / | -42 | 91 | 0.5 | 118 | -3 |
| COc1cccc(CN2C[C@]34C=C[C@@H](C[C@@H]3S2(=O)=O)O4)c1 | i | 1.1 | / | / | / | 105 | / |
| O=C(NC1(C(=O)NC2CCCC2)CCCCC1)c1ccc2c(c1)OCO2 | i | 0.89 | -19 | 54 | -0.9 | 101 | 5 |
| CCOC(=O)C(C)Oc1cccc2c(=O)n(CC(=O)N3CCc4ccccc43)ccc12 (stereo unspecified) | i | 0.95 | / | / | -2.7 | 99 | -4 |
| Nc1ccc(C(=O)OCc2nc3ccccc3s2)cc1 | i | 1 | / | / | / | 101 | -5 |
| COc1ccc(-c2ccc(C#N)c(OC(=O)c3c(Cl)cccc3Cl)n2)cc1 | i | 0.96 | / | / | -2.5 | 100 | -2 |
| CCN1CCN(C(=O)CN(C)S(=O)(=O)c2cc(C)ccc2OC)CC1 | i | 0.91 | -13 | 80 | / | 108 | -3 |
| CC(=O)Nc1cccc(Oc2ncnc3scc(-c4ccc(C(C)C)cc4)c23)c1 | i | 0.63 | 20 | 65 | -1.8 | 101 | 8 |
| Cc1cccc(C)c1OCCCCn1cnc2ccccc2c1=O | i | 1.1 | -140 | 82 | -2.0 | 112 | 6 |
| COc1cc(C(=O)Nc2cccc(-c3nc4ncccc4o3)c2C)cc(OC)c1OC | i | 0.93 | -15 | 108 | -1.9 | 98 | -5 |
| CCOC(=O)c1cc(-c2nnc(-c3ccc(Cl)cc3)o2)c(C)nc1C | i | 0.91 | / | / | -1.8 | 102 | -8 |
| CCOC(=O)c1cc2c(n(-c3ccc(C)cc3)c1=O)CCCC2=O | i | 1 | / | / | 1.1 | 100 | 6 |
| Cn1cc(C(=O)c2ccc(Cl)cc2Cl)cc1C(=O)N/N=C(\N)COc1cccc(C(F)(F)F)c1 | i | 0.88 | -10 | 87 | -0.8 | 104 | -3 |
| COc1ccc(C(=O)Nc2cc(C(F)(F)F)ccc2-n2cnc3ccccc32)cc1 | i | 0.97 | / | / | -0.7 | 95 | -11 |
| COC(=O)c1cccc(NS(C)(=O)=O)c1C | i | 0.71 | -3 | 119 | -1.5 | 99 | 6 |
| COc1cc(/C=N/NC(N)=S)cc(Br)c1OCc1ccccc1F | i | 0.89 | 53 | 65 | 1.4 | 120 | 5 |
| O=C(NCc1ccncc1)Nc1cccc(Cl)c1 | i | 0.93 | 4 | 151 | -0.6 | 99 | -6 |
| Cc1cc(C(=O)CN2C(=O)c3ccccc3C2=O)c(C)n1Cc1cccs1 | i | 1 | 30 | 83 | -0.6 | 34 | -7 |
| CC(C)C(NC(=O)OCc1ccccc1)C(=O)OCC(=O)N1CCCCC1 (stereo unspecified) | i | 1 | / | / | -3.0 | 111 | 4 |
| C[C@@H]1CN(Cc2nc(Cc3ccccc3F)no2)C[C@H](C)O1 | i | 1.7 | / | / | / | 103 | -1 |
| CCOC(=O)/C(C#N)=C/c1cccc(C)c1 | i | 0.99 | / | / | / | 100 | / |
| Cc1cc(-c2n[nH]c(=S)n2/N=C/C(Cl)=C/c2ccccc2)n[nH]1 | i | 0.85 | / | / | 1.4 | 98 | 4 |
| O=C(Nc1ccc(NC(=O)c2ccco2)nc1)c1ccco1 | i | 0.79 | -42 | 98 | / | 98 | -8 |
| Cc1cc(C)cc(N(CCC#N)C(=O)CSc2nc3nc(C)cc(C)n3n2)c1 | i | 0.63 | / | / | 0.1 | 92 | 2 |
| CC(C)(C)OC(=O)NCc1nc(N)n[nH]1 | i | 1 | 7 | 107 | -0.1 | 100 | -7 |
| O=C(Cn1nc2ccccc2n1)N/N=C/c1cc(Cl)cc([N+](=O)[O-])c1O | i | 1.2 | / | / | / | 92 | 2 |
| Cc1ccc(N=C2SCCCN2C(=O)c2ccco2)cc1Cl | i | 0.93 | 3 | 96 | -2.6 | 106 | -2 |
| O=C(Cn1c(C(F)(F)F)nc2ccccc21)Nc1ccccc1C(=O)O | i | 0.72 | -31 | 99 | / | 95 | -6 |
| NC(=O)[C@@H]1CC2(CC(c3cccc(NC(=O)COc4ccc(Cl)cc4)c3)=NO2)CN1C(=O)c1ccccc1 (stereo partly specified) | i | 0.98 | / | / | / | 100 | / |
| CN(c1ccccc1)c1nc(N)c(C#N)c(CC#N)c1C#N | i | 1 | / | / | 0.4 | 97 | -6 |
| COc1cc(CCC(=O)OCC(=O)Nc2ccccc2C(C)C)cc(OC)c1OC | i | 0.98 | / | / | -0.2 | 75 | -2 |
| Cc1cccc(NC(=O)CSc2nnc(-c3ccccc3)n2N)c1C | i | 0.5 | 3 | 91 | -1.4 | 96 | -3 |
| CCc1ccc(CCC(=O)Nc2ncc(Cc3ccccc3Cl)s2)o1 | i | 1 | 22 | 106 | 1.6 | 104 | 2 |
| O=C(NCc1ccco1)c1cccnc1-c1nc2ccccc2s1 | / | / | -120 | 94 | -1.8 | 45 | -9 |
| FC(F)Oc1ccccc1C1CC(c2ccc(Br)s2)Nc2ncnn21 (stereo unspecified) | i | 0.87 | -32 | 69 | -2.0 | 215*[activator] | -16 |
| O=C(COC(=O)c1c(F)cccc1F)c1ccc[nH]1 | i | 0.9 | / | / | / | 87 | / |
| CCOC(=O)CNC(=O)CSc1ccc2nnc(-c3ccc(F)cc3)n2n1 | i | 1.1 | / | / | / | 99 | 5 |
| CC1CCN(C(=O)Cn2nc(C(F)(F)F)c3c2CCCC3)CC1 | i | 0.79 | / | / | -1.1 | 99 | 2 |
